# Screening data (PubChem)
# Calb FLC: C. albicans growth modulation with fluconazole; C. albicans CaCi-2 (fluconazole-resistant clinical isolate) + fluconazole, Alamar Blue growth, 48 h; growth inhibition, % (no concentration beside the values); 300,000 compounds, 0.57% hits; AID 1979;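 active means most replicates above 75%; inconclusive means exactly half above 75%; inactive means most below 75%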;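 further: all wells also contain fluconazole at 8 µg/ml as a sub-toxic cotreatment; 0% = median of DMSO wells and 100% = median of geldanamycin control wells; wells of about 8 µL received 7.5 nL stock; the first replicate is given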
# A1 inh: inhibitors of the anti-apoptotic protein A1, read as caspase activation. MEF A1-2A-BIM cells, Caspase-Glo 3/7 luminescence, 3 h; percent of clofoctol response, vehicle zero. caspase activation, % (no concentration beside the values). 330,000 compounds, 0.066% hits. AID 2462;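 active means over half of replicate activation scores above 10%, or exactly half above 10 with the replicate mean above 10; inconclusive means replicate mean below 10 yet half the replicates above 10; inactive means over half of replicates below 10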;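 further: wells of about 30 µL received 50 nL stock; many hits fall short of the cut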
# T cruzi repl: T. cruzi replication inhibition. T. cruzi beta-gal in NIH3T3, luminescence, 90 h. inhibition, % (test concentration not listed). 300,000 compounds, 1.4% hits;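 active means mean inhibition across valid replicates above about 55%, limit read from the data; inconclusive means mean below that limit but half or more replicates reach it; inactive means mean below it, under half of replicates reach it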;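 further: signal also drops with host cell toxicity which is not excluded here; 0% = plate median of DMSO wells and 100% = zero luminescence signal; higher percent means less beta-gal luminescence so fewer parasites; stock transfer was 50 nL into about 50 µL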
# UCH37 inh: blocks the human deubiquitinase UCH37; purified proteasome/UCH37, Ub-AMC cleavage fluorescence; inhibition, % (concentration not given with the values); Q9Y5K5; 330,000 compounds, 0.33% hits;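 active means mean of two replicates above 20%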;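 further: 0% = compound-free wells with enzyme and 100% = wells lacking proteasome; stock transfer was 100 nL into about 20 µL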
#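 Material: Human UCH37 enzyme supplied as purified proteasome complex | Schedule: 30 min preincubation with enzyme, 25 min cleavage at room temperature | Detection: AMC fluorescence 355/460 nm | Measure: % inhibition of Ub-AMC cleavage fluorescence | Controls: Wells without proteasome as full block, compound-free enzyme plus substrate as uninhibited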
# Beta2AR agonist: activates human beta-2 adrenergic receptor causing internalization | AID 504454 | response, % (no concentration beside the values) | 340,000 compounds, 0.43% hits | P07550 | Am2.2-beta2AR cells, FAP receptor internalization, flow cytometry; reference of the scale not given here;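 active means response above a set limit, near 3 SD of response in nonfluorescent compounds, cut at about 42% in these data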;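 further: stock transfer was 100 nL into about 11 µL; a reference agonist was the positive control; negative values mostly stem from fluorescent compounds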
# Beta cell apopt: beta cell apoptosis inhibition; INS-1E cytokine-induced death, ATP luminescence, 48 h; percent of positive-control rescue, neutral wells zero; protection from apoptosis, % (test concentration not listed); 300,000 compounds, 0.8% hits; AID 435005;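 active means all replicates at 75% or more, or half of them and the mean; inconclusive means half reach 75% but not the mean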;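 further: 0% = cytokine-treated negative control wells and 100% = positive control rescue; higher means more ATP so stronger rescue from cytokine killing; wells of about 40 µL received 100 nL stock; the first replicate is given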
# LANA-H2B inh: blocks KSHV LANA binding to histone H2A/H2B; Q9QR71; cell-free LANA-H2A/H2B peptide, fluorescence polarization; inhibition, % (no concentration beside the values); 320,000 compounds, 0.6% hits; in the data active means inhibition mostly above about 10%, no sharp cut-off; inactive means mostly below about 6.7%;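 further: stock transfer was 7.5 nL into about 10 µL; 0% = median of vehicle wells and 100% = median of positive control wells; one replicate is shown; the record names a cut of 25% in any replicate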
# Target sequence (Q9QR71 whole entry, looked up): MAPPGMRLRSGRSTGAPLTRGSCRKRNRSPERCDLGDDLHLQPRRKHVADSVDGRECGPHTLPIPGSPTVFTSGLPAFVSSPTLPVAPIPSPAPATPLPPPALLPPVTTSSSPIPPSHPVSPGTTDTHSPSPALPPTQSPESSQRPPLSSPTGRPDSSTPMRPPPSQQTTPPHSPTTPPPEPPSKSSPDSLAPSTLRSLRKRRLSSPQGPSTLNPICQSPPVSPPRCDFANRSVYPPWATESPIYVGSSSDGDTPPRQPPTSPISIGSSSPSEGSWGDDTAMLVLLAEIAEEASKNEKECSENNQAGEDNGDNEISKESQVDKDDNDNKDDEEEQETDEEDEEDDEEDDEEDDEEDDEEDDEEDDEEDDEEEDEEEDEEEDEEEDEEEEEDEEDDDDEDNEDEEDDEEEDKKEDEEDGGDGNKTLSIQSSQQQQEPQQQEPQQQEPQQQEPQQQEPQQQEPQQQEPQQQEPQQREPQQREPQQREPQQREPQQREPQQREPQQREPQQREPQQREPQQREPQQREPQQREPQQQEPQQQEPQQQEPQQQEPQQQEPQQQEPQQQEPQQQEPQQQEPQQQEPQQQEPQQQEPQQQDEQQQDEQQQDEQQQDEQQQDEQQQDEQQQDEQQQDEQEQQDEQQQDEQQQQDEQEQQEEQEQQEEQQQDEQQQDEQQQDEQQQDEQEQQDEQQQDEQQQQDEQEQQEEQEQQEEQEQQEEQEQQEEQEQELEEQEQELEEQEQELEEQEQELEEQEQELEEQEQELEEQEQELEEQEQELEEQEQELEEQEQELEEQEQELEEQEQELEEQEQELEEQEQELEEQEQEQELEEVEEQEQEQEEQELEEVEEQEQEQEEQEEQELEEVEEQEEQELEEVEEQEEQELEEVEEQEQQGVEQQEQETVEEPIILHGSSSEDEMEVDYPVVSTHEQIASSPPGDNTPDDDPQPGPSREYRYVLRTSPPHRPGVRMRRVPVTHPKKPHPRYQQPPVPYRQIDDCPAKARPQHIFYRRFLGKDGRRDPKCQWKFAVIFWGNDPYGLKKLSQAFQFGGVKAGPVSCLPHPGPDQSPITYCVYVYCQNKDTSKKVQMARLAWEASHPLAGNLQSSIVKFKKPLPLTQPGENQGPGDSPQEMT
# RanGTP-Impb inh: disruptors of Ran-importin-beta complex formation – biochemical, FRET, CFP-Ran, YFP-importin-beta, homogeneous, primary screen. cell-free CFP-Ran/YFP-importin-beta FRET ratio. inhibition, % (test concentration not listed). 300,000 compounds, 1.1% hits. AID 2216;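 active means most replicates above 15%; inconclusive means exactly half above 15%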;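 further: 0% = DMSO wells and 100% = Ran loaded with GDP instead of GTP; wells of about 40 µL received 100 nL stock; the first replicate is given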
# The depositor's hits bear a star; ? = inconclusive; . = not tested or not shown.
canonical_smiles	Calb FLC	A1 inh	T cruzi repl	UCH37 inh	Beta2AR agonist	Beta cell apopt	LANA-H2B inh	RanGTP-Impb inh
COc1cc(S(=O)(=O)N2CCN(c3ccccc3F)CC2)ccc1Cl	18	-0.2	34	5.5	-6	-9	-2.9	1.8
CC(C)n1c(NCc2c[nH]c3ccccc23)nc2ccccc21	-1	2.6	-5	2.8	-1	9	-2.4	4.0
CC(C)OC(=O)NCCOC(=O)Nc1ccc(Cl)cc1	7	0.7	4	4.7	-2	-2	0.8	1.2
CCOC(=O)Cn1nc(NC(=O)c2ccc(C(=O)OC)cc2)cc1C	-5	0.6	-12	1.4	8	0	0.0	2.4
CCSc1nc(N)nc(-c2cccs2)c1C#N	1	0.4	15	0.1	16	-1	-2.5	-4.6
COc1ccc(NC(=O)c2cc(-c3ccc(C)c(C)c3O)n[nH]2)cc1Cl	0	1.0	-4	1.7	2	10	-4.3	-2.9
CN(C)CCCNC(=O)c1cc(C(=O)c2ccccc2)c[nH]1	9	-0.1	45	1.5	-15	2	2.0	1.9
COCCN(Cc1ccccc1)C(=O)c1cc(S(=O)(=O)N2CCCCCC2)ccc1OC	-2	1.6	4	-2.2	15	0	2.4	.
COc1ccc(C(=O)NC(C)c2ccc(-n3ccnc3)cc2)c(OC)c1 (stereo unspecified)	20	-0.4	0	2.5	1	6	-0.8	0.8
Cc1nn(CC(=O)NCc2cccnc2)c(=O)c2ccccc12	.	-0.6	-13	0.6	4	-7	3.1	0.3
CCCNC(=O)c1ccc(Cn2c(=S)[nH]c3c([nH]c4ccc(OC)cc43)c2=O)cc1	13	-0.6	6	-11	10	10	0.2	-0.6
COc1cccc(/C(O)=C2/C(=O)C(=O)N(CCN3CCOCC3)C2c2cccs2)c1 (stereo unspecified)	0	-0.8	-16	11	-11	-4	1.2	0.3

# Next section.
canonical_smiles	Calb FLC	A1 inh	T cruzi repl	UCH37 inh	Beta2AR agonist	Beta cell apopt	LANA-H2B inh	RanGTP-Impb inh
CC1(C)N=C(c2ccc(Cl)cc2)C(=O)N1	-2	-1.1	-7	3.6	0	-2	1.7	2.1
COc1ccc(NC(=O)CCNC(=O)c2ccccc2Cl)cc1OC	.	-0.6	-14	3.7	-5	-3	1.2	-4.3
O=C(O)CCC(=O)N1N=C(c2cccs2)CC1c1cn(-c2ccccc2)nc1-c1ccccc1 (stereo unspecified)	17	-0.8	3	0.9	0	1	-6.9	1.6
CC1=C(C(=O)N2CCOCC2)C(c2cccc3ccccc23)NC(=S)N1 (stereo unspecified)	-10	0.6	16	1.1	-6	1	-2.3	4.7
O=S(=O)(c1ccc(SCCOc2ccccc2Cl)nc1)N1CCCC1	.	0.0	.	3.2	2	3	2.2	.
COC(=O)c1ccccc1NC(=O)c1cccs1	-6	0.0	-5	4.2	2	-2	-0.2	0.3
O=C(CN1CCN(c2ccccn2)CC1)Nc1ccc(Oc2ccccc2)cc1	15	-0.5	12	4.4	-10	4	-4.6	5.6
O=C(NCCc1ccc(Cl)cc1Cl)c1cncc(Br)c1	1	-1.0	-16	4.2	-2	3	1.8	-6.7
COc1ccccc1CNc1cc(C)ccc1C	2	0.8	-5	3.3	0	-9	-1.0	-2.0
COCCNC(=O)c1cccc(NS(=O)(=O)c2cccc3cccnc23)c1	-5	0.5	-15	3.7	-2	-1	-3.4	1.9
CCN(CC(=O)Nc1ccccc1C(F)(F)F)C(=O)c1cc2c(s1)CCCCC2	2	0.2	-2	-1.7	-5	6	-12	-0.2
COc1cc(/C(C)=N\NC(N)=S)cc(OC)c1OC	-1	-0.6	3	.	-1	8	-12	3.9

# Part of the list above, with values under each structure:
# Below each SMILES – Calb FLC | A1 inh | T cruzi repl | UCH37 inh | Beta2AR agonist | Beta cell apopt | LANA-H2B inh | RanGTP-Impb inh
- COCCNC(=O)c1cccc(NS(=O)(=O)c2cccc3cccnc23)c1
    -5 | 0.5 | -15 | 3.7 | -2 | -1 | -3.4 | 1.9
- O=C(CN1CCN(c2ccccn2)CC1)Nc1ccc(Oc2ccccc2)cc1
    15 | -0.5 | 12 | 4.4 | -10 | 4 | -4.6 | 5.6
- O=C(O)CCC(=O)N1N=C(c2cccs2)CC1c1cn(-c2ccccc2)nc1-c1ccccc1 (stereo unspecified)
    17 | -0.8 | 3 | 0.9 | 0 | 1 | -6.9 | 1.6
- CCN(CC(=O)Nc1ccccc1C(F)(F)F)C(=O)c1cc2c(s1)CCCCC2
    2 | 0.2 | -2 | -1.7 | -5 | 6 | -12 | -0.2
- CC1=C(C(=O)N2CCOCC2)C(c2cccc3ccccc23)NC(=S)N1 (stereo unspecified)
    -10 | 0.6 | 16 | 1.1 | -6 | 1 | -2.3 | 4.7
- COc1ccc(NC(=O)CCNC(=O)c2ccccc2Cl)cc1OC
    . | -0.6 | -14 | 3.7 | -5 | -3 | 1.2 | -4.3
- O=S(=O)(c1ccc(SCCOc2ccccc2Cl)nc1)N1CCCC1
    . | 0.0 | . | 3.2 | 2 | 3 | 2.2 | .

# (further entries)
canonical_smiles	Calb FLC	A1 inh	T cruzi repl	UCH37 inh	Beta2AR agonist	Beta cell apopt	LANA-H2B inh	RanGTP-Impb inh
COc1cc(C(=O)NCC(=O)N/N=C(\C)Cc2ccccc2)cc(OC)c1OC	-3	-1.0	-4	.	0	1	3.7	-5.5
Cc1cc(NC(=O)Cc2c(F)cccc2Cl)no1	-14	-0.1	8	4.7	-3	-3	4.6	-1.8
COc1ccc(C2C(C#N)=C(N)OC3=C2C(=O)CCC3)cc1Cn1nc(C)c([N+](=O)[O-])c1C (stereo unspecified)	-1	0.2	-5	1.5	0	-10	3.4	-3.5
O=C(NC12CC3CC(CC(C3)C1)C2)c1c(Cl)cccc1Cl	15	-0.2	-8	1.1	0	0	-5.7	5.9
CCOC(=O)N1CCN(S(=O)(=O)c2ccc(C(=O)Nc3sc4c(c3C#N)CC(C)(C)NC4(C)C)cc2)CC1	0	0.9	0	12	-4	-5	3.2	7.9
Nc1nnc(SCC(=O)NC2CCCCC2)s1	5	1.1	-8	1.4	5	-1	-1.8	-1.8
CNC(=O)C(=O)Nc1nc(C23CC4CC(CC(C4)C2)C3)cs1	-12	0.9	3	-0.3	9	1	2.2	?
COc1ccccc1NCC(=O)NNCC(=O)Nc1ccc(F)c(Cl)c1	0	-0.2	7	1.7	-5	-3	-2.5	-0.1
CC1S/C(=C(\C#N)C(=O)NCc2ccco2)N(c2ccc(F)cc2)C1=O (stereo unspecified)	16	-0.1	5	0.2	8	-4	1.4	-1.8
COc1ccc(-n2c(SCC(=O)N3CCC(C(=O)O)CC3)nc3ccccc3c2=O)cc1OC	-3	-0.1	-3	2.3	-7	-6	1.6	1.9
CCN=C1SC(CC(=O)NC(C)c2ccccc2)C(=O)N1CC (stereo unspecified)	1	0.1	0	-4.0	-2	1	5.4	2.6
CCn1c(=O)cc(OCC(=O)O)c2ccccc21	-5	1.3	-2	-0.4	-1	2	-1.9	3.8

# Remaining list, next part
compound | Calb FLC | A1 inh | T cruzi repl | UCH37 inh | Beta2AR agonist | Beta cell apopt | LANA-H2B inh | RanGTP-Impb inh
Cc1ccc(C(=O)NCC(=O)NCC(=O)OCc2ccc(Cl)cc2)cc1 | 37 | 1.1 | -28 | 0.4 | -1 | -2 | . | 2.2
O=C(O)CCCCCN1C(=O)C(O)=C(C(=O)/C=C/c2ccccc2)C1c1ccccc1[N+](=O)[O-] (stereo unspecified) | -25 | 0.3 | -26 | 14 | -3 | -10 | -0.7 | 6.3
COc1ccc(C2c3ccc(O)cc3Oc3ncn(CCCO)c(=N)c32)cc1OC (stereo unspecified) | -9 | 0.7 | 1 | 2.7 | -10 | 1 | 0.3 | 3.3
COc1ccc(-n2nc3c(N4CCC(C(=O)N5CCCCCC5)CC4)nnc(C)c3c2C)cc1 | -5 | 0.9 | 59* | . | 17 | 0 | -3.9 | -5.3
Cn1nc(C(=O)Nc2cccc(C(F)(F)F)c2)c2ccccc2c1=O | -10 | 0.8 | -3 | 3.9 | 9 | 1 | 0.9 | 2.2
O=S(=O)(NCc1cc(-c2ccccc2)no1)c1ccccc1Cl | -3 | 0.0 | 2 | 2.2 | 0 | -3 | -1.9 | 2.1
COc1ccc(CN2CCNC(=O)C2CC(=O)N(C)CC2CCOCC2)c(F)c1 (stereo unspecified) | -12 | -1.1 | -6 | -4.8 | -5 | 2 | -6.6 | 4.5
O=C(CSc1nc(-c2ccco2)cc(C(F)(F)F)n1)NC1CCCCCCC1 | -6 | 0.2 | 28 | -1.8 | 7 | 9 | -7.2 | ?
Cc1c(Cl)cccc1NC(=O)CNC(=O)Cc1c[nH]c2ccccc12 | . | 1.3 | . | 3.2 | 0 | -2 | -2.8 | .
Cc1cc(C(=O)OCC(=O)NCc2ccc(Cl)cc2)c(C)o1 | 1 | -0.3 | 3 | 2.3 | -6 | -13 | 2.5 | 7.6
NC(=O)C(c1ccccc1)C1CCCCC1 (stereo unspecified) | 0 | -0.1 | 8 | 3.2 | 4 | -1 | 0.8 | -0.7
CC[N+](CC)(CC)CC(=O)Nc1ccc(SC(F)F)cc1 | -6 | 1.0 | ? | 4.9 | -4 | 1 | -5.5 | ?
O=C(O)CSc1nnc(C2COc3ccccc3O2)n1-c1ccccc1 (stereo unspecified) | -3 | -0.5 | -13 | -0.1 | -14 | -2 | -3.2 | -0.5
Cc1cccc(OCCNc2cc(N3CCN(CCO)CC3)ccc2[N+](=O)[O-])c1 | -3 | -0.5 | 38 | 13 | 17 | 0 | -5.7 | -1.2
O=C(CSc1nc(-c2ccccc2)c(-c2ccccc2)o1)NC1CCS(=O)(=O)C1 (stereo unspecified) | ? | 0.3 | 13 | -6.8 | -5 | 2 | 2.1 | 4.9
CCCCC(=O)Nc1sc(C(=O)N(CC)CC)c(C)c1C(=O)OC | 3 | 0.1 | -11 | 4.8 | -9 | . | -2.6 | 3.6
COc1cccc(CNC(=O)c2ccc(C(=O)NCc3cccc(OC)c3)cc2)c1 | 23 | 1.7 | 8 | 3.9 | 3 | 0 | -3.2 | -0.9
OCCN(Cc1ccccc1)C(=S)Nc1ccc(Cl)cc1Cl | 8 | 1.8 | -13 | 7.1 | -2 | -3 | -0.2 | -6.2
C=CCOc1ccc(/C(O)=C2/C(=O)C(=O)N(CCCN3CCOCC3)C2c2ccccc2)cc1 (stereo unspecified) | 0 | -0.5 | -2 | 9.7 | 0 | -6 | -0.1 | 2.0
O=C(Cc1ccccc1[N+](=O)[O-])NCc1ccncc1 | 8 | 0.1 | -19 | 0.9 | 16 | -7 | -2.1 | -3.1
